TsaE inh – inhibitors of E. coli YjeE (TsaE); P0AF67; purified YjeE, fluorescence polarisation of a bound ADP probe; Potency, µM; actives 0.05% (n = 71,000); AID 605; active = well fitted falling curve; inconclusive = weaker or top-dose-only fall, or a rising curve; inactive = flat or poorly fitted curve;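 also: top concentration of the series not given in the record; excess ADP was the control for the full effect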
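Purified YjeE (10 uM) with BODIPY Texas Red-labeled ADP probe (2 uM); compounds pin-transferred, 15 min at room temperature. Binding inhibition read as decreased fluorescence polarization; ADP titration as control.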
PK Bst – pyruvate kinase (B. stearothermophilus) modulation; partly purified Bacillus stearothermophilus pyruvate kinase, luminescence ATP production; ribose 5-phosphate activator present at AC10; AID 361; Potency, µM; actives 1.2% (n = 51,000); in the data active means potency below about 11 µM; inconclusive means mostly about 12 µM to 25 µM; inactive means weaker than that;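 the screen sought inhibitors and activators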;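 also: potency is read from the fitted curve at half-maximal effect; scaled between full activation by ribose 5 phosphate and full inhibition by luteolin; about four in five hits inhibit and the cells do not say which; series up to 57 µM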
An asterisk follows results filed as active; i = inactive; u = inconclusive; x = no result given. The list is partial (hit frequency here may not be typical).

SMILES	TsaE inh	PK Bst
c1ccc(C(CN2CCOCC2)c2ccccc2)cc1	i	x
O=C(CCN1CCN(C/C=C/c2ccccc2)CC1)Nc1ccccc1	i	x
NC(=O)C1CCN(C(=O)c2ccc(C(F)(F)F)cc2)CC1	i	>57
CCC(=O)Nc1cccc(NC(=O)CSc2nnc(C3CC3)n2C)c1	i	>57
Clc1ccc(Cn2ncc3c(NCc4cccnc4)ncnc32)cc1	i	>57
CN(CC(=O)NCCC1=CCCCC1)S(=O)(=O)c1ccc2c(c1)c(=O)n(C)c(=O)n2C	i	x
O=C(c1cccc(F)c1)N1CCC[C@@]2(CCN(c3ccccc3)C2)C1	i	x
COc1ccccc1-c1nnc(SCC(=O)O)n1C	i	>57
COc1ccccc1N1CCN(Cc2nc(N)nc(Nc3ccc(C)c(Cl)c3)n2)CC1	i	>57
Cc1ccccc1-n1c(C)nnc1SCC(=O)N1CC(=O)Nc2ccccc21	i	>57
CS(=O)(=O)N(Cc1ccccc1)c1ccc(C(=O)NC2CCCCC2O)cc1 (configuration not stated)	i	x
CCOc1ccccc1NC(=O)CSc1nnc(-c2ccccn2)n1Cc1ccco1	i	>57
COc1ccc(CNC(=O)c2cc3c(=O)n4ccccc4nc3n(Cc3ccco3)c2=N)cc1	i	>57
c1nc(N2CCC3(CC2)OCCO3)c2c3c(sc2n1)CCCC3	i	x
O=C(CCn1c(=O)c2sccc2n(CC(=O)OCc2ccccc2)c1=O)NCc1ccco1	i	>57
O=C(O)C1CCN(C(=O)c2scc3c2OCCO3)CC1	i	>57
Cc1c(NC(=O)CCc2ccc(S(=O)(=O)N3CCOCC3)cc2)c(=O)n(-c2ccccc2)n1C	i	>57
O=c1[nH]cnc2scc(-c3cccs3)c12	i	>57
O=C(Cc1ccccc1)NCc1nc2ccccc2[nH]1	i	>57
Cc1nc(NC2=NCN(C3CCCCC3C)CN2)nc2ccccc12 (configuration not stated)	i	>11
CN(C)C(=O)Cn1nc(-c2ccccc2)c2ccccc2c1=O	i	>57
CC(C)Cn1c(CN2CCN(c3ccccc3F)CC2)nc2c1c(=O)[nH]c(=O)n2C	i	x
COc1cc(NC(=O)Cc2ccccc2)cc(OC)c1	i	x
N#Cc1c(-c2ccc3c(c2)OCO3)csc1N	i	x
COc1ccccc1-c1ccc(NC2CCCCC2)nn1	i	x
Carrying on:
SMILES	TsaE inh	PK Bst
Cc1cc(C)n(S(=O)(=O)c2ccc(C(C)(C)C)cc2)n1	i	>57
O=C(c1cccc(N2CCCC2=O)c1)N1CCN(c2ccccc2)CC1	i	>57
CC(=O)Nc1ccc(S(=O)(=O)NCCNC(=O)c2ccccc2F)cc1	i	>57
CCN(C(=O)c1cnc2scc(C)n2c1=O)c1ccccc1C	i	x
Cc1ccc(Cl)cc1N1CCN(S(=O)(=O)c2cnc[nH]2)CC1	i	x
CCOC(=O)c1[nH]c2ccc(F)cc2c1NC(=O)CN1CCN(C/C=C/c2ccccc2)CC1	i	x
N#CCCCn1c(-c2ccccc2)noc1=O	i	>57
CCOc1ccc(S(=O)(=O)N2CCc3ccccc3C2)cc1	i	>57
COC(=O)C1=CNC=C(C(=O)OC)C1c1cccc(OC)c1	i	>57
CCOC(=O)c1oc2ccc(S(=O)(=O)Nc3ccc4c(c3)n(C)c(=O)n4C)cc2c1C	i	>57
O=C(CCc1ccccc1)NCc1ccccn1	i	x
O=C1c2ccccc2C(=O)N1CCCP(=O)(O)CCc1ccccc1	i	>57
CCOC(=O)c1cnc(-n2nc(C)cc2C)nc1Nc1cccc(C(=O)O)c1	i	>57
C[C@@H](C(=O)Nc1ccc2ccccc2c1)[C@@H]1C[C@@]1(C)[C@@H](NC(=O)c1ccccc1)c1ccccc1	i	x
COc1ccccc1-n1c(CNC(=O)c2ccco2)nnc1SCC(=O)Nc1cc(C)ccc1C	i	>57
Cc1oc(-c2ccccc2Cl)cc1-c1nn2c(-c3ccco3)nnc2s1	i	x
Cc1nc(Sc2nnnn2C)c2c3c(sc2n1)CCC3	i	>57
Cc1cc(=O)oc2cc(OC(C)C(=O)Nc3nccs3)ccc12 (configuration not stated)	i	>57
CC(Sc1ccccc1)C(=O)Nc1cccc(N(C)S(C)(=O)=O)c1 (configuration not stated)	i	>57
CCOc1ccc(NC(=O)N(C2CCCCCC2)C2CCN(C(C)=O)CC2)cc1	i	>57
COc1ccc(-c2nc(C#N)c(N3CCCCCC3)o2)cc1	i	x
Cn1cc(-c2nc3cncnc3n(C3CC3)c2=O)c2ccccc21	i	x
Cc1cc(C)nc(N2CCC(C(=O)N3CCN(c4cc(Cl)ccc4C)CC3)CC2)n1	i	>57
Cc1cccc(OCc2nnc(N)s2)c1	i	>57
CCCCCCCCCCCCCCCCCCOC[C@@H](COP(=O)([O-])OCC[N+](C)(C)C)OC	i	x

4 compounds from above, sorted by count of non-hydrogen atoms, rising.
SMILES	TsaE inh	PK Bst
N#CCCCn1c(-c2ccccc2)noc1=O	i	>57
COC(=O)C1=CNC=C(C(=O)OC)C1c1cccc(OC)c1	i	>57
CCOC(=O)c1oc2ccc(S(=O)(=O)Nc3ccc4c(c3)n(C)c(=O)n4C)cc2c1C	i	>57
CCCCCCCCCCCCCCCCCCOC[C@@H](COP(=O)([O-])OCC[N+](C)(C)C)OC	i	x

The listing picks up; the 2 compounds before the break are reprinted first.
SMILES	TsaE inh	PK Bst
Cc1cccc(OCc2nnc(N)s2)c1	i	>57
CCCCCCCCCCCCCCCCCCOC[C@@H](COP(=O)([O-])OCC[N+](C)(C)C)OC	i	x
CCCN(Cc1cc2ccc(C)cc2[nH]c1=O)C(=O)c1cccnc1	i	>57
COc1ccc(S(=O)(=O)N2CCN(C)CC2)cc1Br	i	x
CC(NC(=O)COc1ccccc1)C(=O)OCC(=O)c1cc2ccccc2o1 (configuration not stated)	i	>57
O=C(Nc1ccccc1)N1CCC(C(=O)N2CCN(S(=O)(=O)c3cccc(F)c3)CC2)CC1	i	>57
Cc1ccc(Cn2nnc3c(=O)n(Cc4cccc(C)c4)cnc32)cc1	i	>57
CC(=O)OCc1c(F)c(F)c(-n2nc(C)cc2C)c(F)c1F	i	>57
Cn1c(SCC(=O)N2CCOCC2)nc2cccnc21	i	>57
CCOC(=O)Cc1nnc(Nc2cccc(O)c2)c2ccccc12	x	>26
COc1ccc(C(=O)Nc2cccc(N(C)S(C)(=O)=O)c2)cc1OC	i	x
Cc1c(Cl)cccc1N1C(=O)CC(N(O)c2ccccc2)C1=O (configuration not stated)	i	>57
O=C(O)COc1c(Cl)cc(Cl)c2cccnc12	i	x
COc1ccccc1N1CCN(C(=O)Cn2nnc(-c3cccs3)n2)CC1	i	>57
Cc1cc(C)n(-c2nc3ccccc3c(=O)n2OCC(=O)Nc2c(C)cccc2C)n1	i	>57
Cc1ccccc1N1C(=O)c2cc(S(N)(=O)=O)c(Cl)cc2N[C@H]1C	i	x
Cc1ccc(-c2nc(NC(=O)CSc3nnnn3-c3ccccc3)ns2)cc1	i	>57
Cc1nc2oc3c(NCc4ccccc4)ncnc3c2c2c1COC(C)(C)C2	i	>57
COC(=O)CN1C(=O)CC(C)(C)Sc2ccccc21	i	x
CCOc1cc2[nH]c(=S)n(CCCN3CCCC3=O)c(=O)c2cc1OCC	i	>57
Cc1ccc(S(=O)(=O)c2cc3c(=O)n4cc(C)ccc4nc3n(CC3CCCO3)c2=N)cc1 (configuration not stated)	i	>57
Cc1nc2ccccc2c2oc(C(=O)NCCN3CCCCC3C)cc12 (configuration not stated)	i	x
Cc1nc2ncnn2c(Nc2ccc3c(c2)OCO3)c1Cc1ccccc1	i	>57
CCOC(=O)c1c(N)c(C#N)cn1-c1ccccc1	i	>57
Cc1nc2nc(COc3ccccc3)[nH]n2c(=O)c1Cc1ccccc1	i	>57
COCCCNC(=O)CCN1C(=O)COc2ccccc21	i	>57
COc1ccc(CN(C(=O)CSc2nnc(-c3ccccc3F)o2)c2ccc(F)cc2)cc1	i	>57

Compound profiles, as listed above. Screens in order: TsaE inh, PK Bst
Shown for O=C(O)COc1c(Cl)cc(Cl)c2cccnc12 : i, x
Shown for Cc1ccc(-c2nc(NC(=O)CSc3nnnn3-c3ccccc3)ns2)cc1 : i, >57

(continued)
SMILES	TsaE inh	PK Bst
CC1(C)CC(=O)C2=C(C1)Oc1ncn(CCO)c(=N)c1C2c1ccccc1 (configuration not stated)	i	>57
O=C(c1ccccc1)c1cccn1CC(=O)N1CCCCCC1	i	>57
Cc1ccc2[nH]c(=O)c(CNC(C)C)cc2c1	i	>57
O=C1NC(c2cccnc2)C(C(=O)c2cccs2)C(O)(C(F)(F)F)N1 (configuration not stated)	i	>57
OC(CNCc1ccco1)Cn1c2ccccc2c2ccccc21 (configuration not stated)	i	>57
COc1ccc(-c2nc3c(n2O)CCC/C3=N\O)cc1	i	x
CC(=O)OC(C)(C)N=Nc1ccc(Br)cc1	i	x
CC(=O)NCC(=O)NC(C(=O)Nc1ccc2c(c1)OCCO2)c1ccc(C)cc1 (configuration not stated)	i	>57
Cc1ccnc(NC(=O)C2CCCN(S(=O)(=O)c3cnc[nH]3)C2)c1 (configuration not stated)	i	x
Cc1cc(C)n(-c2ccc(C(=O)OCC(=O)Nc3ccc(S(=O)(=O)N4CCOCC4)cc3)cc2)n1	i	>57
Cc1cc(Nc2ccc(F)cc2Cl)n2nc(C)nc2n1	i	x
CCCCCCn1c(N2CCC(C)CC2)nc2c1c(=O)[nH]c(=O)n2C	i	>57
O=C(C1CCN(S(=O)(=O)c2ccc(Br)s2)CC1)N1CCc2ccccc21	i	>57
COC(=O)c1sccc1NC(=O)c1ccc2c(c1)OCO2	i	x
COc1cc(S(=O)(=O)NC2CCCC2)ccc1Cl	i	>11
Cc1ccnc(NC(=O)CCc2c(C)nc3ncnn3c2C)c1	i	>57
COc1ccc(CN(C(=O)c2oc3ccccc3c2C)C2CCS(=O)(=O)C2)cc1 (configuration not stated)	i	>57
Cc1cccc(OCc2nnc(SCC(=O)Nc3sc(C)c(C)c3C#N)n2C)c1	i	>57
COc1cc(C)c(N)cc1C(C)C	i	>57
CC[C@H]1CN(C)[C@H]2Cc3c([nH]c4ccccc34)C(=O)C[C@H]1[C@H]2C(=O)OC	i	x
Fc1ccc(Cn2nnnc2CN2CCc3ccccc3C2)cc1	i	>57
CCN(CC)C(=O)c1ccc(O)c(OC)c1	i	>26
CC(=O)N(c1ccc2oc(=O)sc2c1)S(=O)(=O)c1cccs1	i	>57
CC(=O)Oc1ccc(CCC(C)OC(C)=O)cc1 (configuration not stated)	i	x
CC1(C)OC(=O)C(=CNn2cnc3ccccc3c2=O)C(=O)O1	i	>57
The listing continues.
SMILES	TsaE inh	PK Bst
CC(=O)Oc1ccc2occ(C(=O)c3cccs3)c2c1	i	x
COc1ccccc1N=c1oc2c(OC)cccc2cc1C(=O)NCc1ccco1	i	>57
CCCOc1ccc(CSC(CC(=O)O)C(=O)O)cc1 (configuration not stated)	x	i
CCOC(=O)c1[nH]c(C)c(C(=O)NC)c1C	i	x
CCCN1C2=C(C(=O)CCC2)C(c2ccc(O)c(Br)c2)C2=C1CCCC2=O	i	>57
c1ccc(-c2noc(COc3ccc4c(c3)OCO4)n2)cc1	i	x
CCCc1nc(SCC(=O)N2CCC(Cc3ccccc3)CC2)c2c(=O)n(C)c(=O)n(C)c2n1	i	x
COc1ccc(CC(=O)OCc2cc3ccccc3[nH]c2=O)cc1	i	>57
COc1ccccc1CN1CC[C@@]2(CCCN(C(C)=O)C2)C1	i	x
CC1=CC(C)(C)N=C(NC#N)N1	i	>57
CCOC(=O)c1cnn(-c2nc(C)nc3sc4c(c23)CCC4)c1N	i	>57
CC(C)(O)P(C)(=O)c1ccccc1 (configuration not stated)	i	x
Cc1c(S(=O)(=O)O)ccc(N=Nc2c(O)c(C(=O)O)cc3ccccc23)c1Cl	i	x
COc1ccccc1C1c2c(oc3ccc(Cl)cc3c2=O)C(=O)N1c1cc(C)on1 (configuration not stated)	i	>57
CC(=O)[C@H]([C@@H](c1ccccc1)N1CCOCC1)N1CCOCC1	i	x
Cn1c(Cn2c(=O)sc3ccccc32)nnc1SCc1ccc(F)cc1	i	x
O=C(CSc1nc2sc3c(c2c(=O)n1Cc1ccco1)CCC3)N1CCc2ccccc21	i	>57
Cc1ccc(-c2nc(CS(=O)CC(=O)NCCN(CC(C)C)CC(C)C)c(C)o2)cc1 (configuration not stated)	i	>57
CC(C)Cc1nc(N2CCN(C(=O)C(C)C)CC2)c(C#N)c2c1CCC2	x	>26
COc1ccccc1C(c1nnnn1CS(=O)(=O)c1ccc(C)cc1)N1CCSCC1 (configuration not stated)	i	u
COc1ccc(S(=O)(=O)Cc2ccc(C(=O)N3CCN(C(=O)c4ccco4)CC3)o2)cc1	i	x
Cc1cc(C)n(C(=O)c2ccc(S(=O)(=O)NCC3CCCO3)cc2)n1 (configuration not stated)	i	>57
CCc1ccc(NC(=O)C(C)Nc2ccc(S(=O)(=O)NC(C)=O)cc2)cc1 (configuration not stated)	i	>57
c1csc(CNc2ccnc(-c3ccoc3)n2)c1	i	x
COc1cccc(CNC(=O)C2CCN(S(=O)(=O)c3ccc4c(c3)CCC(=O)N4)CC2)c1	i	x
(more compounds)
SMILES	TsaE inh	PK Bst
O=S(=O)(c1ccc(NC2CCCc3ccccc32)nc1)N1CCOCC1 (configuration not stated)	i	u
Brc1ccc(-c2nnc(-c3ccc4c(c3)OCO4)o2)o1	i	i
CCOC(=O)c1c(NC(=O)COC)sc(C(C)=O)c1C	i	>57
CCn1c2ccccc2c2nnc(NCCCO)nc21	i	x
CCOC(=O)c1sc2nc3n(c(=O)c2c1C)CCCCC3	i	x
COc1cccc(Cn2c(=O)c(-c3cn(C)c4ccccc34)nc3cnc(N4CCOCC4)nc32)c1	i	x

Screening data as filed in PubChem BioAssay.
